A1 inhib – A1 inhibition; 0.51% of 21,000 active; caspase activation, % (test concentration not listed); MEF A1-2A-BIM cells, caspase-Glo luminescence, 3 h; percent of clofoctol signal, DMSO as zero;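 active = most replicate scores above 10, or exactly half above 10 with mean activity above 10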;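 also: effector caspase 3 and 7 activity cleaving a DEVD luciferin substrate; 50 nL library stock added to about 30 µL; numbers are from one replicate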
BJeLR viab HTS – compounds reducing viability of BJeLR cells. BJeLR fibroblasts viability, CellTiterGlo ATP luminescence, 48 h; HRASV12, hTERT and SV40 LT/ST transformed. viability loss activity score, % (test concentration not listed). 0.64% of 30,000 active; in the data active = viability loss activity score above about 50%; about a fifth of its hits are not listed in these tables;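 also: higher score means fewer live cells and less ATP luminescence; stock transfer was 50 or 100 nL into about 30 µL; 0% = vehicle wells and 100% = a reference killing control; one replicate is shown; the record names a cut of 85%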
The depositor's hits bear a star; · = no result given.

Each structure is followed by: BJeLR viab HTS, A1 inhib
O=C(CCc1nc2cccnc2n1-c1ccccc1)NCc1ccccc1
 : 1.1, ·
CCc1ccc(-n2[nH]c(=O)c(/C=c3\c(C)c(C#N)c4nc5ccccc5n4c3=O)c2O)cc1
 : 1.9, ·
O=C(Cc1cccc2ccccc12)Nc1ccc(I)cc1
 : -9.3, 0.2
CC(C)(C)C(=O)CSc1nnc(-c2cnccn2)s1
 : -13, -0.5
COc1cc2c(cc1OC)C1=C(C#N)CCC(=O)N1CC2
 : -6.0, 0.0
C[C@H](CO)N1C[C@H](C)[C@H](CN(C)S(=O)(=O)c2cn(C)cn2)Oc2c(NC(=O)c3ccc(-c4nccs4)cc3)cccc2C1=O
 : 4.1, ·
Cc1noc(C)c1NC(=O)N(C)C[C@H]1Oc2c(NC(=O)C3CC3)cccc2C(=O)N([C@H](C)CO)C[C@H]1C
 : -6.7, ·
Cc1noc(C)c1S(=O)(=O)Nc1cccc2c1O[C@@H](CN(C)C(=O)Nc1ccc(F)cc1)[C@@H](C)CN([C@H](C)CO)C2=O
 : -3.3, ·
Cc1ccc(S(=O)(=O)N(C)C[C@H]2Oc3ccc(NS(=O)(=O)c4cn(C)cn4)cc3C(=O)N([C@H](C)CO)C[C@@H]2C)cc1
 : -0.9, 0.1
NC(=O)CN1CCCCCC1=O
 : -5.8, 0.1
COC(=O)c1cccc2nc3c(C(C)O)cccc3nc12 (stereo not given)
 : -8.3, 0.2
CCn1c(=O)cc(OCC(=O)NC2CCCC2)c2ccccc21
 : 2.6, ·
Cc1cc(C(=O)Nc2cccc3c2O[C@@H](CN(C)Cc2ccc(Cl)c(Cl)c2)[C@H](C)CN([C@H](C)CO)C3=O)n(C)n1
 : 1.2, ·
Cc1nc2ccc(-c3nc4ccc(NC(=O)c5cccs5)cc4[nH]3)cc2[nH]1
 : -1.4, ·
COc1ccc(-c2oc3cc(OC)c(OC)c(O)c3c(=O)c2OC)cc1OC
 : 3.6, -0.1
C[C@@H]1CN([C@H](C)CO)C(=O)c2cc(NS(=O)(=O)c3ccc(Cl)cc3)ccc2O[C@H]1CN(C)C(=O)Nc1ccc(C(F)(F)F)cc1
 : -1.3, 0.7
C[C@H](CO)N1C[C@H](C)[C@H](CN(C)Cc2ccc3c(c2)OCO3)Oc2ccc(NC(=O)Nc3ccc4c(c3)OCO4)cc2C1=O
 : 7.6, -0.4
CC1C(=O)C(=O)[C@@H]2O[C@@H]2C1=O (stereo not given in full)
 : -0.1, -1.8
O=C1/C(=C/c2cccc(F)c2)CS/C1=C\c1cccc(F)c1
 : 0.7, ·
CCCCN(C)C(=O)c1[nH]c2ccccc2c1Sc1ccc(Cl)cc1
 : 4.3, 0.0
C[C@H](CO)N1C[C@H](C)[C@@H](CN(C)S(=O)(=O)c2ccc(F)cc2)Oc2c(NC(=O)Nc3ccc4c(c3)OCO4)cccc2C1=O
 : -5.9, ·
CC/C=C/c1ccc(C)cc1/C=C/CCCC(=O)O
 : -1.2, -0.1
CCc1ccc(NC(=O)c2cc3c(s2)-c2ccccc2S(=O)(=O)C3)cc1
 : 16, 3.5
CC1CCc2[nH]c3ccc(C(=O)O)cc3c2C1 (stereo not given)
 : -2.3, ·
CC(C)(C)CC(=O)NCc1ccc(S(N)(=O)=O)cc1
 : 3.0, -0.2
CNC[C@@H]1Oc2ccc(NC(=O)c3ccncc3)cc2C(=O)N([C@H](C)CO)C[C@H]1C
 : 3.9, -0.4
CSC1=N/C(=C\c2ccc(Cl)cc2)C(=O)N1CCc1c[nH]c2ccccc12
 : 0.0, -0.6
S=c1[nH]nc(SCC2CC2)s1
 : -1.0, -1.0
CC1(c2ccccc2)Nc2ccccc2-c2nc3ccccc3n21 (stereo not given)
 : 3.5, ·
CC1CCC(C(C)C)C(=O)/C1=C/c1ccc(N)cc1 (stereo not given)
 : 1.0, 0.0
Cc1onc(-c2ccccc2)c1-c1ccnn1S(=O)(=O)c1ccc(Cl)cc1
 : -15, -0.6
Cc1noc(C)c1NC(=O)Nc1cccc2c1O[C@@H](CN(C)Cc1ccc(Oc3ccccc3)cc1)[C@H](C)CN([C@H](C)CO)C2=O
 : -3.8, ·
COc1ccc(NC(=O)N(C)C[C@@H]2Oc3ccc(NS(=O)(=O)c4ccc(Cl)cc4)cc3C(=O)N([C@H](C)CO)C[C@H]2C)cc1
 : 6.0, 0.1
Cc1ccc(S(=O)(=O)Nc2ccc3c(c2)C(=O)N([C@@H](C)CO)C[C@H](C)[C@@H](CN(C)Cc2ccc(Cl)c(Cl)c2)O3)cc1
 : -3.4, -0.6
C[C@@H]1CN([C@@H](C)CO)C(=O)c2cc(NC(=O)CCC(F)(F)F)ccc2O[C@H]1CN(C)Cc1ccc(Cl)c(Cl)c1
 : -0.2, 0.0
CC(C)c1ccc2[nH]c3c(c2c1)CCC/C3=N\O
 : -7.0, -0.1
Cc1c(Cc2ccccc2)c(=O)oc2cc(OCc3ccc(C(=O)O)cc3)ccc12
 : -0.9, -2.2
O=C(Nc1ccccc1Cl)c1cc2ccccc2cc1O
 : 6.1, -6.7
C[C@@H]1CN([C@H](C)CO)C(=O)c2cccc(NC(=O)Nc3ccc(F)cc3)c2O[C@@H]1CN(C)Cc1ccc(C(=O)O)cc1
 : -1.9, ·
C[C@@H]1CN([C@@H](C)CO)C(=O)c2cccc(NS(=O)(=O)c3ccc(F)cc3)c2O[C@@H]1CN(C)Cc1ccccc1
 : 3.2, ·
O=C(Cc1ccccc1)NC1CCN(C(=O)C2CCC2)CC1
 : 0.4, -1.0
C1CCN(C2=NCCS2)CC1
 : 1.4, 0.6
CC(=O)OC[C@@]12C(=O)C[C@@H](C)[C@]3(C[C@@H](c4ccoc4)OC3=O)[C@H]1CC[C@H](OC(C)=O)[C@]21CO1
 : -9.6, -0.8
COc1ccc(S(=O)(=O)N(C)C[C@H]2Oc3ccc(NC(=O)CCC(F)(F)F)cc3C(=O)N([C@@H](C)CO)C[C@H]2C)cc1
 : 0.2, -0.6
CCN(C(=O)c1ccc2c(SCC(=O)O)c3c(nc2c1)CCC3)c1cc(Cl)ccc1OC
 : 2.9, -0.3
O=C1N=c2ccccc2=C1c1sc(NS(=O)(=O)c2ccccc2)nc1O
 : 1.3, -4.2
C[C@@H]1CN([C@@H](C)CO)C(=O)c2cc(NS(=O)(=O)c3ccc(F)cc3)ccc2O[C@H]1CN(C)C(=O)Nc1ccc(F)cc1
 : -4.5, 0.1
CC(C)(C)NC(=S)NCc1ccccc1
 : 3.8, -0.1
O=C(O)c1cc(N(Cc2ccccc2O)Cc2ccccc2O)ccc1O
 : 1.2, 0.1
Cc1cc(C)c(Cn2nc(C(C)(C)C)cc2C(=O)NN2CCOCC2)c(C)c1
 : -2.5, 0.4
CC1(C)CC(C)(c2ccccc2)c2cc(SC#N)ccc2N1 (stereo not given)
 : -8.5, -1.9
O=C1c2ccccc2NC(c2ccccc2)N1N=C1CCCCCC1 (stereo not given)
 : -3.9, 0.3
CSc1nnc(-c2ccccc2N)c(=O)[nH]1
 : 4.9, -0.7
CCCNC(=O)c1[nH]c2ccccc2c1Sc1ccc(C)cc1
 : 2.8, 0.2
COc1ccc(S(=O)(=O)Nc2cccc3c2O[C@H](CN(C)Cc2ccncc2)[C@@H](C)CN([C@@H](C)CO)C3=O)cc1
 : 0.5, ·
CC(C)NC(=O)Nc1cccc2c1O[C@H](CN(C)Cc1ccncc1)[C@H](C)CN([C@@H](C)CO)C2=O
 : -8.3, ·
S=C(Nc1ccc2c(c1)OCCO2)Nc1ccccc1N1CCOCC1
 : 0.8, -0.5
COc1cccc(/C=C2\CCC(C3CCCC3)C2=O)c1OC (stereo not given)
 : 0.1, ·
C[C@H]1CN([C@@H](C)CO)C(=O)c2cccc(NC(=O)C3CC3)c2O[C@@H]1CN(C)S(=O)(=O)c1ccc(F)cc1
 : -1.3, ·
COc1ccc(S(=O)(=O)N(C)C[C@@H]2Oc3ccc(NC(=O)CCCCCC(=O)Nc4ccccc4N)cc3C(=O)N([C@@H](C)CO)C[C@@H]2C)cc1
 : -6.1, ·

Next section.
Each structure is followed by: BJeLR viab HTS, A1 inhib
C[C@H]1CN([C@@H](C)CO)C(=O)c2cccc(NC(=O)c3ccncc3)c2O[C@H]1CN(C)Cc1ccncc1
 : -3.6, ·
COc1ccc(C2NC(=S)NC(C)=C2C(N)=O)cc1 (stereo not given)
 : 5.3, -0.5
O=C(Nc1ccccc1C(=O)N1CCN(Cc2ccccc2)CC1)c1ccccn1
 : -3.6, -0.6
CCCCS(=O)(=O)NC1=NCN(CCO)CN1
 : -1.9, -0.4
O=C(c1ccc(Oc2ccccc2)cc1)c1coc2ccc(O)cc12
 : 2.4, -5.2
Cc1noc(C)c1NC(=O)Nc1cccc2c1O[C@@H](CN(C)C(=O)Nc1cccc3ccccc13)[C@H](C)CN([C@H](C)CO)C2=O
 : -1.4, ·
Cc1ccc(CC(=S)N2CCOCC2)cn1
 : -2.2, -0.4
Cc1noc(C)c1NC(=O)N(C)C[C@@H]1Oc2ccc(NC(=O)C3CC3)cc2C(=O)N([C@H](C)CO)C[C@H]1C
 : 2.2, 0.2
C[C@@H]1CN([C@@H](C)CO)C(=O)c2cccc(NS(=O)(=O)c3cn(C)cn3)c2O[C@@H]1CN(C)C(=O)Nc1ccc(F)cc1
 : 0.3, ·
CCCc1c(C(=O)NCc2ccc3c(c2)OCO3)cnn1-c1ccccc1
 : 8.0, 0.5
O=C1OCCN/C1=C\C(=O)c1ccccc1
 : -3.0, -0.2
C[C@@H]1CN([C@@H](C)CO)C(=O)c2cccc(NC(=O)Nc3ccccc3)c2O[C@@H]1CN(C)C(=O)Nc1cccc2ccccc12
 : 5.6, ·
CSc1nc2c(sc3ccccc32)c(=O)n1-c1ccc(C)cc1
 : 9.5, 0.0
C[C@H](CO)N1C[C@H](C)[C@H](CN(C)S(=O)(=O)c2cn(C)cn2)Oc2c(NC(=O)C3CCCCC3)cccc2C1=O
 : -1.7, ·
COc1ccc(NC(=O)Nc2ccc3c(c2)C(=O)N([C@H](C)CO)C[C@H](C)[C@@H](CN(C)CC2CCCCC2)O3)cc1
 : -1.5, 0.5
C[C@@H]1CN([C@@H](C)CO)C(=O)c2cc(NS(=O)(=O)c3ccc(Cl)cc3)ccc2O[C@@H]1CN(C)S(=O)(=O)c1cn(C)cn1
 : 11, 1.9
CC(=O)N1c2ccccc2C=Cc2ccccc21
 : -1.6, -0.4
C[C@@H]1CN([C@@H](C)CO)C(=O)c2cc(NC(=O)Nc3ccccc3)ccc2O[C@H]1CN(C)C(=O)Nc1ccccc1
 : -3.1, -0.2
C[C@@H]1CN([C@@H](C)CO)C(=O)c2cccc(NC(=O)Nc3ccc(C(F)(F)F)cc3)c2O[C@@H]1CN(C)S(=O)(=O)c1cn(C)cn1
 : 1.9, ·
O=C(c1ccc2c(c1)C(=O)c1ccccc1-2)c1ccccc1Br
 : 5.0, -0.3
C[C@@H]1CN([C@@H](C)CO)C(=O)c2cc(NS(=O)(=O)c3cn(C)cn3)ccc2O[C@H]1CN(C)Cc1ccc(Cl)c(Cl)c1
 : -3.3, -0.8
C[C@H](CO)N1C[C@H](C)[C@@H](CN(C)C(=O)Nc2cccc3ccccc23)Oc2c(NC(=O)C3CCCCC3)cccc2C1=O
 : -4.0, ·
CC(=O)N1CCN(c2nc3ccc(Cl)cc3s2)CC1
 : -0.8, -1.6
O=C(CCn1cccc1)NCC1COc2ccccc2O1 (stereo not given)
 : 36, 1.4
C[C@@H]1CN([C@@H](C)CO)C(=O)c2cc(NS(=O)(=O)c3ccccc3)ccc2O[C@@H]1CN(C)Cc1ccc(C(F)(F)F)cc1
 : -1.3, 1.6
C[C@@H]1CN([C@@H](C)CO)C(=O)c2cccc(NS(=O)(=O)c3ccc(F)cc3)c2O[C@@H]1CN(C)C(=O)Nc1cccc2ccccc12
 : 2.5, ·
C[C@@H]1CN([C@H](C)CO)C(=O)c2cc(NS(=O)(=O)c3ccccc3)ccc2O[C@@H]1CN(C)C(=O)Nc1ccc2c(c1)OCO2
 : -4.8, -0.5
CCC(=O)c1cc2ccccc2oc1=O
 : 1.2, 0.2
COc1cc(C(=O)OCC(=O)Nc2ccc(C)cc2)cc(OC)c1OC
 : -2.7, 0.7
Cc1cc(NC(=O)/C=C/c2ccc(F)cc2)no1
 : -1.1, -3.4
COc1ccc(NC(=O)Nc2ccc3c(c2)C(=O)N([C@@H](C)CO)C[C@@H](C)[C@H](CN(C)S(=O)(=O)c2ccc(Cl)cc2)O3)cc1
 : -2.0, 0.8
C[C@H]1CN([C@@H](C)CO)C(=O)c2cccc(NS(=O)(=O)c3ccccc3)c2O[C@H]1CN(C)C(=O)Nc1ccc(C(F)(F)F)cc1
 : -0.3, ·
COc1ccc(NC(=O)Cn2cnc3ccccc3c2=O)cc1
 : -0.4, 0.9
CCCSc1ccc2nc(NC(=O)OC)[nH]c2c1
 : 39, -2.1

From PubChem

A portion of the library. The share of hits here may be higher or lower than overall.
